Bioassay records (PubChem BioAssay)
Mito fusion act – mitochondrial division inhibition or fusion activation; AID 485298; hit rate 0.23% among 320,000; Potency, µM (highest dose often 46.1 µM), for the others: top-dose growth rescue (activation), actives largely listed as activators; S. cerevisiae fusion-defective mutant growth rescue, CellTiterGlo 48 h;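 also: potency is read from the fitted curve at half-maximal effect; % of control where 0% means no effect; nearly all actives have a fitted effect of over 45% in size; temperature-sensitive fusion mutants such as fzo1-1 at 37 °C on non-fermentable ethanol glycerol medium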
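Compounds are tested for their ability to restore growth of mitochondrial fusion-defective yeast strains at non-permissive 37C in YPEG medium over 48 hours. Viability is quantified by luciferase luminescence.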
TCR act – activators of T cell receptors; primary human leukocytes, anti-CD3, IL-2 HTRF, 48 h; Potency, µM (series often up to 9.22 µM), without a hit: at the highest dose activation of IL-2 secretion, most hits filed as activators; 330,000 tested, under 10 active; AID 504894; also: % of control where 0% means no effect
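IL-2 release read by HTRF sandwich (Eu cryptate donor, d2 acceptor, 665 nm emission) after 48 hr exposure of primary human leukocytes to compound together with anti-CD3 beads in the absence of co-stimulatory signals.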
TSHR antag – blocks TSH signaling through the human TSH receptor; TSHR-expressing cells, TSH-stimulated cAMP HTRF, 2 h; active compounds read low; activity change, negative = inhibition, % at 11.5 µM; hit rate 0.2% among 330,000; AID 504810;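 active = activity change below a set negative limit, meaning inhibition stronger than a set level, cut at about -70% in these data; inconclusive = activity change between two set negative limits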; also: % is scaled to controls: 0 for no effect and ±100 for the full control effect
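Antagonism was scored as loss of TSH-driven cAMP in TSHR cells, stimulated with 4nM TSH (EC80) for 2 hours at 37 deg C and detected by homogeneous HTRF competition immunoassay.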
ELG1 repair inh – inhibitors of ELG1-dependent DNA repair in HEK293T cells | HEK293T ELG1-luciferase reporter, luminescence, 16 h; DNA damage induced by 5-fluorouridine | Potency, µM (series often up to 46.1 µM), without a hit: top-dose activity change, negative = inhibition, usual class: inhibitors | hit rate 2.3% among 330,000 | AID 504467; also: potency is read from the fitted curve at half-maximal effect; % is scaled to controls: 0 for no effect and ±100 for the full control effect; nearly all actives have a fitted effect of over 55% in size
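In this reporter screen, reduction of luminescence relative to DMSO vehicle indicated activity. Compounds and 5-fluorouridine were added together to 2,000 cells per well, incubated for 16 hr at 37 °C, then developed with ONE-Glo.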
Eya2 phos inh – Eya2 (human) phosphatase inhibition; recombinant Eya2, OMFP fluorescence dephosphorylation (OMFP is methylfluorescein phosphate); Potency, µM (top dose mostly 76.9 µM), for inactives: at the highest dose activity, negative = inhibition, hits mostly inhibitors; hit rate 0.006% among 330,000; also: potency is read from the fitted curve at half-maximal effect; % is scaled to controls: 0 for no effect and ±100 for the full control effect
Target sequence (O00167 whole entry, looked up): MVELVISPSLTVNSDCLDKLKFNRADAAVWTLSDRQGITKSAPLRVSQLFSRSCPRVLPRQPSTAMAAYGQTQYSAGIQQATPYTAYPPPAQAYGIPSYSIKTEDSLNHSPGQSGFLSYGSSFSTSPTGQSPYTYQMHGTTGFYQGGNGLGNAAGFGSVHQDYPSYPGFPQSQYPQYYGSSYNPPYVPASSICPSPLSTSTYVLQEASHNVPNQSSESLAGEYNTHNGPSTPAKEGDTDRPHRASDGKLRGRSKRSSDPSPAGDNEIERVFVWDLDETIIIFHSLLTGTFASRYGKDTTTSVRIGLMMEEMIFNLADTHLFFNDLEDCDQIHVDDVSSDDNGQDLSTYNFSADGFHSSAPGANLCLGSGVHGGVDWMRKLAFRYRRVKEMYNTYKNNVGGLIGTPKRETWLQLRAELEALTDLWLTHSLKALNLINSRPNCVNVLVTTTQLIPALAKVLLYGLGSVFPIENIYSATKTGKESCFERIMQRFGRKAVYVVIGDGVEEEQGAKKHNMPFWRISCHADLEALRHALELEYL
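Eya2 (0.2 uM) preincubated 10 min at ambient with compound, then OMFP substrate added at 50 uM; 10 min reaction in 50 mM HEPES pH 7.5, 50 mM NaCl, 5 uM MgCl2, 0.05% BSA, 1 mM DTT. Fluorescence read at Ex 485/Em 525 nm.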
TRPV1 ag – human TRPV1 agonism; TRPV1-expressing cells, Fluo-8 calcium influx, agonist mode; activation, % at 8.33 µM; hit rate 0.19% among 320,000; AID 540275; in the data active = activation above about 80%; inconclusive = between about 30% and that limit; also: 0% is about no effect
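TRPV1-expressing cells were cultured overnight at 35.5C and loaded with Fluo-8 calcium dye for 40 to 90 min at room temperature. After a 10 s baseline, compound was added and calcium influx was read kinetically for 3 min (ex 480/em 520 nm).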
A-T KAP1 phos – potential ataxia-telangiectasia treatments restoring KAP-1 phosphorylation; hit rate 0.19% among 320,000; AID 485349; […] A-T fibroblasts, KAP-1 phosphorylation AlphaLISA; neocarzinostatin DNA damage 30 min before lysis; Potency, µM (top dose mostly 57.5 µM), without a hit: at the highest dose activation, usual class: activators; also: potency is read from the fitted curve at half-maximal effect; % of control where 0% means no effect; nearly all actives have a fitted effect of over 45% in size
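ATM-like activity read as KAP-1 phosphorylation via AlphaLISA donor/acceptor antibody pairs after lysis and 6 hr at 25C. Cells were ATM-null patient fibroblasts ([…], hTERT), dosed 60 min, then exposed to the DSB inducer NCS for 30 min.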
USP2a block – USP2a (human) protease inhibition. O75604. USP2 core, Ub-CHOP2 coupled fluorogenic reporter, 485/531. Potency, µM (doses to about 38.3 µM), inactives show at the highest dose activity change, negative = inhibition, most hits filed as inhibitors. hit rate 0.01% among 330,000. AID 463254;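 also: potency is read from the fitted curve at half-maximal effect; plate controls were DMSO wells for no effect and full inhibition by NEM control for full effect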
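Deubiquitinase activity read as fluorescence (485/531 nm) after Ub-CHOP2 cleavage activates the enterokinase reporter on its substrate; USP2 core 10nM, Ub-CHOP2 and substrate 25nM each, 30min compound preincubation then 60min RT; data normalized to NEM, curves fitted.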
* = called active by the depositor; u = inconclusive; x = no result given; & = joins results of further samples; [ ] = remark or other dose. Unless noted, calls follow the shape of the dose curve; as a rule, active = well fitted curve in the direction sought with a large enough effect; inconclusive = small, poorly fitted or top-dose-only effect, or another doubt; inactive = no such curve, though single readings can be large; an effect the other way counts as inactive or inconclusive. These rows are one share of the data; the hit share may differ from the screen's.

SMILES	Mito fusion act	TCR act	TSHR antag	ELG1 repair inh	Eya2 phos inh	TRPV1 ag	A-T KAP1 phos	USP2a block
CCCCn1c(N)c(N(CC(C)C)C(=O)c2ccc(S(=O)(=O)N3CCCCC3)cc2)c(=O)[nH]c1=O	-4.8%	-3.0%	5.3	21.3%	-28.7%	-4.0	-2.4%	-0.6%
CCN(CC)CCNC(=O)c1cc(Br)c(N)cc1OC	17.9%	-10.0%	24.7	5.6%	-1.7%	-5.2	20.2%	1.8%
CC(=O)OCC(=O)NCCCOc1cccc(CN2CCCCC2)c1	x	-4.2%	x	x	x	x	x	x
C/C(N)=C(/C#N)C(=O)COC(=O)CNC(=O)c1ccc(Cl)cc1Cl	-3.8%	1.3%	0.9	12.8%	-16.4%	3.1	0.7%	-0.1%
O=C(O)CSc1nnc(Cn2c(=O)sc3ccccc32)n1-c1cccc(Cl)c1	0.6%	4.2%	6.2	4.0%	22.5%	-4.5	3.6%	-1.6%
COC(=O)C1=C(C)N(C(C)c2ccccc2)C(=O)C1 (stereo not given)	3.4%	13.8%[46.1 µM]	-5.5	6.3%	1.4%	10.8	-0.5%	3.0%
C[C@@H]1C[C@H]2[C@@H]3CCC4=CC(=O)C=C[C@]4(C)[C@@]3(F)[C@@H](O)C[C@]2(C)[C@@]1(O)C(=O)COP(=O)(O)O	13.0%&3.2%	1.4%	32.4&14.1	10.1%	3.2%&8.2%	0.8&-1.2	x	3.7%&1.5%
Cc1oc2ccc(NS(=O)(=O)c3ccc(C(C)(C)C)cc3)cc2c1C(=O)Nc1ccccc1	3.3%	-1.8%	-42.3	u	-7.0%	-3.3	15.0%	0.5%
CCOC(=O)CCC(=O)O[C@H]1[C@H](O[C@@H]2[C@@H](C)[C@H](O[C@H]3C[C@@](C)(OC)[C@@H](O)[C@H](C)O3)[C@@H](C)C(=O)O[C@H](CC)[C@@](C)(O)[C@H](O)[C@@H](C)C(=O)[C@H](C)C[C@@]2(C)O)O[C@H](C)C[C@@H]1N(C)C	6.2%	6.2%	7.8	16.9%	-14.2%	0.8	-11.1%	1.1%
O=C(CNC(=O)c1cccc([N+](=O)[O-])c1)OCCCC(=O)c1ccc(F)cc1	x	-0.3%	2.7	5.8%	-30.2%	x	1.9%	5.0%
CCC(=O)N1CCc2cc(S(=O)(=O)NCCC(=O)N3CCN(c4cccc(C)c4)C(C)C3)ccc21 (stereo not given)	8.4%	5.7%	4.8	u	1.5%	1.9	-4.5%	0.2%
CCCCN(CCCC)CCC(O)c1cc2c(Cl)cc(Cl)cc2c2cc(C(F)(F)F)ccc12 (stereo not given)	-36.8%[inhibitor]	-6.5%	3.2	2.3%	-4.7%	5.2	-4.5%	0.8%
CC(C)CCN1CCN=C1N(C)C	-5.9%	-2.2%	-7.8	7.2%	-5.7%	0.2	1.6%	-0.5%
Cc1cc(C)nc(N/N=C/C2=C(N3CCOCC3)C(=C/c3ccccc3)/CC2)n1	28.1%	0.9%[46.1 µM]	47.5	16.4µM*	-9.7%	-3.0	x	-0.1%
O=C(C1CCN(S(=O)(=O)c2ccccc2F)CC1)N1CCN(Cc2ccc3c(c2)OCO3)CC1	6.0%	-3.0%	4.2	u	2.0%	0.7	-6.2%	-8.4%
CCOC(=O)CN1CC23C=CC(O2)C(C(=O)NC2CCCCC2)C3C1=O (stereo not given)	-2.9%	-1.7%	1.8	3.7%	-8.4%	0.9	8.1%	-5.0%
O=C(CNC1CCCC1)Nc1ccc(N2CCCCCC2)cc1	-13.6%	5.6%	2.4	1.1%	-5.2%	u	-3.1%	0.7%
O=C(COC(=O)CCc1ccccc1)Nc1ccc(F)cc1Cl	-1.8%	3.8%	42.3	16.1%	2.1%	-0.7	6.4%	-2.6%
O=C(N/N=C/c1ccc(O)c(O)c1)c1ccc(CSc2cccc3cccnc23)cc1	0.0%	-0.2%	1.4	-6.4%	-5.3%	u	-1.1%	-6.0%
CCOc1cc(/C=N/NC(=O)c2cccc(S(=O)(=O)N3CCCC3)c2)ccc1OCC(=O)N(C)C	-11.3%	1.1%	-4.8	4.7%	-20.9%	-1.6	3.0%	-1.2%

Results in TRPV1 ag (2 entries from above):
| mol | TRPV1 ag |
| --- | --- |
| CCCCN(CCCC)CCC(O)c1cc2c(Cl)cc(Cl)cc2c2cc(C(F)(F)F)ccc12 (stereo not given) | 5.2 |
| CC(C)CCN1CCN=C1N(C)C | 0.2 |

Other compounds.
SMILES	Mito fusion act	TCR act	TSHR antag	ELG1 repair inh	Eya2 phos inh	TRPV1 ag	A-T KAP1 phos	USP2a block
CCn1c(CNc2ccc(OC)cc2)nnc1SCC(=O)N1CCCc2ccccc21	-4.1%	-1.2%	-2.5	-7.8%	-14.8%	4.0	-7.6%	-5.3%
O=C1CSc2cc(Cl)ccc2N1	x	8.2%	x	x	x	x	x	x
Cc1nc(NS(=O)(=O)c2ccccc2)sc1NC(=O)OC(C)C	5.7%	x	6.8	13.7%	11.0%	1.5	-3.1%	-6.8%
O=C(COc1ccccc1[N+](=O)[O-])Nc1ccc(Br)cc1	-2.5%	1.1%	6.2	u	15.5%	18.9	13.2%	-1.0%
COC(=O)C1=C(C(=O)OC)C(c2cc(Cl)ccc2O)c2sc(=O)[nH]c2S1 (stereo not given)	5.6%	x	-23.4	27.3%	-0.7%	-1.6	-3.9%	1.3%

By substructure: the compounds so far with fluorine (five)
SMILES	Mito fusion act	TCR act	TSHR antag	ELG1 repair inh	Eya2 phos inh	TRPV1 ag	A-T KAP1 phos	USP2a block
C[C@@H]1C[C@H]2[C@@H]3CCC4=CC(=O)C=C[C@]4(C)[C@@]3(F)[C@@H](O)C[C@]2(C)[C@@]1(O)C(=O)COP(=O)(O)O	13.0%&3.2%	1.4%	32.4&14.1	10.1%	3.2%&8.2%	0.8&-1.2	x	3.7%&1.5%
O=C(CNC(=O)c1cccc([N+](=O)[O-])c1)OCCCC(=O)c1ccc(F)cc1	x	-0.3%	2.7	5.8%	-30.2%	x	1.9%	5.0%
CCCCN(CCCC)CCC(O)c1cc2c(Cl)cc(Cl)cc2c2cc(C(F)(F)F)ccc12 (stereo not given)	-36.8%[inhibitor]	-6.5%	3.2	2.3%	-4.7%	5.2	-4.5%	0.8%
O=C(C1CCN(S(=O)(=O)c2ccccc2F)CC1)N1CCN(Cc2ccc3c(c2)OCO3)CC1	6.0%	-3.0%	4.2	u	2.0%	0.7	-6.2%	-8.4%
O=C(COC(=O)CCc1ccccc1)Nc1ccc(F)cc1Cl	-1.8%	3.8%	42.3	16.1%	2.1%	-0.7	6.4%	-2.6%
